Tg IFNy HTS: T. gondii growth inhibition with IFN-gamma, primary screen, cell-based; Toxoplasma gondii growth in IFN-gamma-treated host cells; active compounds read low; reference of the scale not given here; activity change, negative = inhibition, %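 (about 20 µM by stock and volumes)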; 3.8% of 69,000 active; AID 1259416, 2018;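 active = below -70%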;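 note: host cells are HeLa cells infected with Toxoplasma gondii; parasite growth read as luciferase light; one replicate is shown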
* = called active by the depositor. This is a subset; rates above refer to the full screens.

For CCC(=O)N1C[C@@H](C)[C@H](OC)CN(C)C(=O)c2ccc(NC(=O)CC(F)(F)F)cc2OC[C@H]1C the results were Tg IFNy HTS 31.7.
`Cn1cc(CN2CCCC23CCN(CC(C)(C)O)CC3)cn1` gave Tg IFNy HTS -42.9.
Screening Cc1ccc2c(c1)nnc1n[nH]c(=S)n12 returned Tg IFNy HTS 24.4.
Screening CCc1nccn1-c1cncc(C2CCN(C(=O)Cc3ccccc3)CC2)n1 returned Tg IFNy HTS -15.9.
For Cc1nc(-c2cccc(F)c2)sc1CCNC(=O)C1CC1 the results were Tg IFNy HTS 195.0.
For CCOc1ccccc1CN(CC)C(=O)c1c[nH]c2ccc(OC)cc2c1=O the results were Tg IFNy HTS -28.7.
O=C(C1CC1)N1CCc2c(ncnc2NCc2cnc3ccccn23)C1 was read as Tg IFNy HTS 5.5.
CC(c1ccc(-c2ccc(S(N)(=O)=O)cc2F)cc1)N1CCOCC1 (stereo not given) was read as Tg IFNy HTS -6.4.
`COCCN(Cc1cccs1)C(=O)c1cc(=O)n(C)c(=O)n1C` gave Tg IFNy HTS 1.8.
O=C(NCc1csc(C2CCCN(C(=O)c3cc(F)ccc3F)C2)n1)C1CCC1 (stereo not given) was read as Tg IFNy HTS -3.1.
`CCc1nnc(CN(C(=O)CC2C(=O)NCCN2C(C)C)C(C)C)o1` (stereo not given) gave Tg IFNy HTS -2.2.
Cc1cnn(CC(=O)NC(CCc2ccccc2)c2ccc3c(c2)OCCO3)c1 (stereo not given) was read as Tg IFNy HTS -1.4.
For Cc1ccc(F)c(NC(=O)CNC(c2nccn2C)C2CC2)c1 (stereo not given) the results were Tg IFNy HTS -30.9.
Cc1cc(C)n(CCC(=O)N2CCCC2c2ccccc2C)c(=O)n1 (stereo not given) was read as Tg IFNy HTS 2.7.
`CCc1ccc2nc(N3CC(O)C3)cc(C)c2c1` gave Tg IFNy HTS -21.7.
Screening C[C@H](CO)N1C[C@H](C)[C@H](CN(C)Cc2ccccc2)OCc2cn(nn2)CCCC1=O returned Tg IFNy HTS -36.2.
For O=C(Cn1cnc2ccccc21)N1CCC(c2ccccc2)C1 (stereo not given) the results were Tg IFNy HTS 4.7.
Screening COc1ccc(-c2nc(Cn3c(=O)c4cccnc4n(-c4ccc(OC)cc4)c3=O)c(C)o2)cc1 returned Tg IFNy HTS 2.1.
For O=C(Nc1cccc2nsnc12)c1sc2ccccc2c1Cl the results were Tg IFNy HTS 40.9.
Screening Cc1ccccc1OCCSc1nc2ncnc(N)c2[nH]1 returned Tg IFNy HTS 31.2.
`COc1ccc(S(=O)(=O)Nc2cccc3c2O[C@@H](CN(C)CC2CCCCC2)[C@@H](C)CN([C@@H](C)CO)C3=O)cc1` gave Tg IFNy HTS -29.3.
For c1ccc2sc(Cn3cnnc3)nc2c1 the results were Tg IFNy HTS -50.1.
CCCc1nc(NCc2nnnn2-c2ccccc2)c2cnn(C)c2n1 was read as Tg IFNy HTS -9.3.
Cc1nccn1CC1CCCN(CC(=O)N2CCN(c3ccccc3F)CC2)C1 (stereo not given) was read as Tg IFNy HTS -2.7.
`Cc1noc(C)c1CC(=O)N1CCC(c2nnc(-c3nccc4ccccc34)o2)CC1` gave Tg IFNy HTS 63.8.
CCc1ccc(CNC(=O)c2cc3cc(S(=O)(=O)N(C)C)ccc3n2Cc2ccncc2)cc1 was read as Tg IFNy HTS 40.5.
For CS(=O)(=O)c1ccc(-c2cnn3cccnc23)cc1 the results were Tg IFNy HTS 13.2.
O=C(Cc1cccnc1)N1CC(=O)N2[C@H](C1)[C@H](c1ccc(/C=C/c3ccccc3)cc1)[C@@H]2CO was read as Tg IFNy HTS -51.4.
`C=CCN1C(=O)CCC2C1CCN2C(=O)c1ccc2[nH]ccc2c1` (stereo not given) gave Tg IFNy HTS 5.7.
Screening CO[C@@H]1CN(C)C(=O)c2ccc(NC(=O)c3ccno3)cc2OC[C@@H](C)N(S(C)(=O)=O)C[C@@H]1C returned Tg IFNy HTS -22.7.
Screening Cc1cccc(-c2nc(C)c(CCNC(=O)C(=O)Nc3c(C)cccc3C)s2)c1 returned Tg IFNy HTS 10.9.
CN(C)CC(=O)N[C@H]1C=C[C@H](CC(=O)NCc2ccc(Cl)cc2)O[C@@H]1CO was read as Tg IFNy HTS -20.6.
For CC(=O)N1CCC2(CC1)C(=O)N(c1ccc(C)nc1)CCN2Cc1ccccc1 the results were Tg IFNy HTS -12.7.
CCn1c(=O)c(=O)[nH]c2c(=O)oc3ccccc3c21 was read as Tg IFNy HTS 18.5.
Screening O=C(C[C@H]1CC[C@@H]2[C@H](COC[C@H](O)CN2C(=O)Nc2ccc(F)cc2)O1)NC1CCC1 returned Tg IFNy HTS -5.9.
`Cc1cc(NC(=O)CCc2cn(C)c3ccccc23)n(Cc2cccnc2)n1` gave Tg IFNy HTS 32.5.
`CCc1nc(C)ccc1OCC(=O)N1Cc2cnc(CC(C)C)nc2C1` gave Tg IFNy HTS -3.2.
`COCc1cc(CNC(=O)c2cc3sccc3[nH]2)[nH]n1` gave Tg IFNy HTS 25.3.
Cc1nc(CCc2nc3ccccc3[nH]2)cc(NCC2(c3ccccc3)CCOCC2)n1 was read as Tg IFNy HTS -58.3.
Cc1oc(C2CCN(S(=O)(=O)c3ccccc3F)CC2)nc1C(=O)N1CCOCC1 was read as Tg IFNy HTS -31.3.

Molecules from the list above that contain a halogen (10):
For CCC(=O)N1C[C@@H](C)[C@H](OC)CN(C)C(=O)c2ccc(NC(=O)CC(F)(F)F)cc2OC[C@H]1C the results were Tg IFNy HTS 31.7.
For Cc1nc(-c2cccc(F)c2)sc1CCNC(=O)C1CC1 the results were Tg IFNy HTS 195.0.
CC(c1ccc(-c2ccc(S(N)(=O)=O)cc2F)cc1)N1CCOCC1 (stereo not given) was read as Tg IFNy HTS -6.4.
O=C(NCc1csc(C2CCCN(C(=O)c3cc(F)ccc3F)C2)n1)C1CCC1 (stereo not given) was read as Tg IFNy HTS -3.1.
For Cc1ccc(F)c(NC(=O)CNC(c2nccn2C)C2CC2)c1 (stereo not given) the results were Tg IFNy HTS -30.9.
For O=C(Nc1cccc2nsnc12)c1sc2ccccc2c1Cl the results were Tg IFNy HTS 40.9.
Cc1nccn1CC1CCCN(CC(=O)N2CCN(c3ccccc3F)CC2)C1 (stereo not given) was read as Tg IFNy HTS -2.7.
CN(C)CC(=O)N[C@H]1C=C[C@H](CC(=O)NCc2ccc(Cl)cc2)O[C@@H]1CO was read as Tg IFNy HTS -20.6.
Screening O=C(C[C@H]1CC[C@@H]2[C@H](COC[C@H](O)CN2C(=O)Nc2ccc(F)cc2)O1)NC1CCC1 returned Tg IFNy HTS -5.9.
Cc1oc(C2CCN(S(=O)(=O)c3ccccc3F)CC2)nc1C(=O)N1CCOCC1 was read as Tg IFNy HTS -31.3.

(cont.)
`CCC(=O)Nc1cc(Cl)ccc1C(=O)N1CC[C@H](NC(C)=O)C1` gave Tg IFNy HTS -0.4.
Screening Cc1cccc(CN2CCC3(CCCN(C(=O)c4cccnc4)C3)C2)n1 (stereo not given) returned Tg IFNy HTS -7.5.
Screening CCOCc1noc2c1CN(Cc1ccoc1)CC2 returned Tg IFNy HTS -8.0.
Screening Cc1ccc2nc(NC(=O)CN3C(=O)CCc4cc(Br)ccc43)sc2c1 returned Tg IFNy HTS 110.9.
Screening CCCC1c2cccn2CCN1C(=O)c1nc(-c2ccc(F)cc2)oc1C (stereo not given) returned Tg IFNy HTS 20.7.
`CC(C)c1nc(-c2cc(C(=O)N3CCC(N(C)C)C3)c3ccccn23)cs1` (stereo not given) gave Tg IFNy HTS -1.2.
For CC(=O)N1CCC2(CC1)CC(Oc1ccccc1)CO2 (stereo not given) the results were Tg IFNy HTS -1.5.
Screening CCc1[nH]c2ccc(CNC(=O)c3ccn[nH]3)cc2c1C returned Tg IFNy HTS 5.1.
Clc1cccc(CSc2nc(Nc3ccc4c(c3)OCO4)c3ccccc3n2)c1 was read as Tg IFNy HTS -48.2.
Screening Cc1noc(C)c1S(=O)(=O)N(C)C[C@@H]1OCc2cn(nn2)CCCC(=O)N([C@H](C)CO)C[C@H]1C returned Tg IFNy HTS 41.0.
For COC(=O)c1ccc(S(=O)(=O)N(Cc2ccccc2)C(C)C)o1 the results were Tg IFNy HTS 55.7.
`CCSc1nnc(NC(=O)CCn2c(=O)oc3ccccc32)s1` gave Tg IFNy HTS 15.3.
`CC(=O)N1CCC[C@]2(C[C@@H](OCc3ccncc3)CO2)C1` gave Tg IFNy HTS 96.3.
Screening Fc1ccc(Nc2nc(SCc3ccccc3Cl)nc3ccccc23)cc1 returned Tg IFNy HTS -44.8.
`Cc1ccc(C2=NC3(CCN(CC(=O)Nc4ccccc4Cl)CC3)NC2=O)cc1C` gave Tg IFNy HTS 41.7.
COc1ccc([C@@H]2CC=CC[C@@H](C)Oc3ccccc3C(=O)N(C)[C@H](C(C)C)C(=O)N2)c(OC)c1 (mixture of isomers) was read as Tg IFNy HTS 64.9.
COCCN(Cc1ccccc1F)Cc1c(C)nc2ccc(Cl)cn12 was read as Tg IFNy HTS -24.6.
Screening CCCCNC(=O)c1cncc(N(C)S(=O)(=O)c2ccc(C)cc2)c1 returned Tg IFNy HTS 13.2.
For CCS(=O)(=O)N1CCC2(CC1)OC(=O)C(C)=C2C(=O)NCCCOC(C)C the results were Tg IFNy HTS 59.9.
COc1cccc(SCC(=O)Nc2cnc3n2CCCC3)c1 was read as Tg IFNy HTS -58.4.
Screening CCCNC(=O)N1[C@H](CO)[C@H](c2ccccc2-c2ccc(OC)cc2)[C@@H]1C#N returned Tg IFNy HTS -47.0.
For CC(C)(C)n1ccc(C(=O)NC2CC(=O)N(Cc3ccccc3Cl)C2)c1 (stereo not given) the results were Tg IFNy HTS -40.1.
`O=C(Nc1ccccc1)N1CCCC2(CCCN2Cc2ccc(Cl)cc2)C1` (stereo not given) gave Tg IFNy HTS 11.7.
`CO[C@@H]1CN(C)C(=O)c2cc(NC(=O)Nc3ccccc3F)ccc2OC[C@@H](C)N(C(=O)c2cnccn2)C[C@H]1C` gave Tg IFNy HTS 44.3.
For O=C1N(Cc2ccccc2)C(=O)C2(CCN(Cc3ccsc3)CC2)N1CCc1ccccc1 the results were Tg IFNy HTS -63.6.
`COc1cccc(CNC(=O)c2c(O)c3ccccc3n(-c3ccccc3)c2=O)c1` gave Tg IFNy HTS -5.0.
`CC(=O)c1ccc(-c2nccc(CCC(F)(F)F)n2)s1` gave Tg IFNy HTS 17.5.
`CCN1CCC2(CC1)OC(=O)C(C)=C2C(=O)NCCN1CCCCCC1` gave Tg IFNy HTS 106.3.
Screening C[C@@H]1CCCCO[C@H](CN(C)C(=O)CCC(F)(F)F)[C@H](C)CN([C@H](C)CO)C(=O)c2cc(NC(=O)C3CCCCC3)ccc2O1 returned Tg IFNy HTS -29.1.
For O=C(NC1CCC(n2cnnc2)CC1)C1(c2ccccc2)CC12CCCC2 (stereo not given) the results were Tg IFNy HTS -4.8.
Screening CCN1c2cc(C)ccc2-n2cccc2C12CCN(C(=O)Nc1cc(C)cc(C)c1)CC2 returned Tg IFNy HTS -28.2.
For CCOCCN1Cc2ncn(C)c2C(COCc2cccc(C)n2)C1 (stereo not given) the results were Tg IFNy HTS -7.9.
For O=C1CCC(C(=O)N2CCOC3(CNCCOC3)C2)=NN1 (stereo not given) the results were Tg IFNy HTS 5.3.
For O=C(COC(=O)c1ccccn1)NCc1ccccc1 the results were Tg IFNy HTS 11.9.
COC(=O)[C@@H]1C[C@H](NC(=O)c2cc3sccc3[nH]2)CN1C was read as Tg IFNy HTS 19.9.
`Cc1ccc(F)cc1C(=O)N1CC[C@@H](c2ccc3c(c2)OCO3)[C@H](O)C1` gave Tg IFNy HTS 2.4.
For CO[C@H]1CC[C@H]2CCN(C)C(=O)[C@H](C)CN(C)C(=O)c3cc(C#N)ccc3OC[C@H]1O2 the results were Tg IFNy HTS -40.8.
For c1ccc(COC(CN2CCCC2)CN2CCCC2)cc1 the results were Tg IFNy HTS -6.2.
Screening CCO/C([O-])=N/c1c[n+](N2CCOCC2)no1 returned Tg IFNy HTS -9.3.
O=C(NCCn1ncc2ccccc2c1=O)[C@H]1Cc2ccccc2CN1 was read as Tg IFNy HTS 60.4.
Screening CC(C)NC(=O)CC1CC2(CCN(c3ncccn3)CC2)c2ccccc21 (stereo not given) returned Tg IFNy HTS -67.5.
`COC(=O)CCNC(=O)CC(=O)Nc1ccc(C)cc1C` gave Tg IFNy HTS 8.1.
COc1ccc(-n2ccnc2-c2ccccc2OCC(=O)O)cc1 was read as Tg IFNy HTS 46.5.
For O=C(O)COc1cccc(-c2ocnc2-c2nc(-c3ccccc3)c(-c3ccccc3)o2)c1 the results were Tg IFNy HTS -5.1.
CN(C)C1CCN(C(=O)c2ccc3ccc(N4CCN(c5ncccn5)CC4)n3c2)CC1 was read as Tg IFNy HTS 3.6.
Screening c1cncc(-c2cn(CC3CCCN(c4cnc5ccccc5n4)C3)nn2)c1 (stereo not given) returned Tg IFNy HTS -6.5.
C=C1/C(=C/C=C2/CCC[C@]3(C)[C@@H]([C@H](C)CCCC(C)C)CC[C@@H]23)C[C@@H](O)C[C@@H]1O was read as Tg IFNy HTS -64.8.
Screening COc1ccc2c(c1)NC1(CCN(S(=O)(=O)c3ccc(C(C)(C)C)cc3)CC1)c1cccn1-2 returned Tg IFNy HTS -48.2.
Screening Cn1cc(-c2ccc(C(=O)N3CCC(CN4CCCC4=O)CC3)cn2)cn1 returned Tg IFNy HTS -14.6.
`O=C(CC1CC1)N1[C@@H]2CN(S(=O)(=O)c3ccccc3F)c3ccccc3[C@@H]2[C@@H]1CO` gave Tg IFNy HTS -0.2.
For O=S(=O)(N1CCCC1)N1CCN(Cc2cnn(-c3ccc(Cl)cc3)c2)CC1 the results were Tg IFNy HTS -21.4.
CCCCN(CCCC)CCCNC(=O)C1=C(C)C(=O)OC12CCN(S(=O)(=O)CC)CC2 was read as Tg IFNy HTS -0.5.
For CN(C)C(=O)c1ccc(-c2ccc(C3[C@H]4CNC[C@@H]3N4CC3CCCCC3)cc2)cc1 (stereo not given in full) the results were Tg IFNy HTS -25.0.
